RanGTP-Impb inh: inhibitors of RanGTP-importin-beta interaction, primary screen, biochemical, FRET, CFP-Ran, YFP-importin-beta, homogeneous. AID 2216. actives 1.1% (n = 300,000). inhibition, % (concentration not given with the values). cell-free CFP-Ran/YFP-importin-beta FRET ratio;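 active = most replicates above 15%; inconclusive = exactly half above 15%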;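 note: 0% = DMSO wells and 100% = Ran loaded with GDP instead of GTP; wells of about 40 µL received 100 nL stock; the first replicate is given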
Calb FLC: affects C. albicans growth with fluconazole; C. albicans CaCi-2 (fluconazole-resistant clinical isolate) + fluconazole, Alamar Blue growth, 48 h; growth inhibition, % (concentration not given with the values); actives 0.57% (n = 300,000); AID 1979;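 active = most replicates above 75%; inconclusive = exactly half above 75%; inactive = most below 75%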;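 note: all wells also contain fluconazole at 8 µg/ml as a sub-toxic cotreatment; 0% = median of DMSO wells and 100% = median of geldanamycin control wells; wells of about 8 µL received 7.5 nL stock; the first replicate is given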
Beta cell apopt: blocks beta cell apoptosis | INS-1E cytokine-induced death, ATP luminescence, 48 h; percent of positive-control rescue, neutral wells zero | protection from apoptosis, % (no concentration beside the values) | actives 0.8% (n = 300,000);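 active = all replicates at 75% or more, or half of them and the mean; inconclusive = half reach 75% but not the mean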;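 note: 0% = cytokine-treated negative control wells and 100% = positive control rescue; higher means more ATP so stronger rescue from cytokine killing; wells of about 40 µL received 100 nL stock; the first replicate is given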
T cruzi inh: T. cruzi replication inhibition | AID 1885 | actives 1.4% (n = 300,000) | T. cruzi beta-gal in NIH3T3, luminescence, 90 h | inhibition, % (no concentration beside the values);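 active = mean inhibition across valid replicates above about 55%, limit read from the data; inconclusive = mean below that limit but half or more replicates reach it; inactive = mean below it, under half of replicates reach it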;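 note: signal also drops with host cell toxicity which is not excluded here; 0% = plate median of DMSO wells and 100% = zero luminescence signal; higher percent means less beta-gal luminescence so fewer parasites; stock transfer was 50 nL into about 50 µL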
Bfl-1 A1 inh: inhibitors of the anti-apoptotic protein A1, read as caspase activation | AID 2462 | caspase activation, % (no concentration beside the values) | actives 0.066% (n = 330,000) | MEF A1-2A-BIM cells, Caspase-Glo 3/7 luminescence, 3 h; percent of clofoctol response, vehicle zero;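 active = over half of replicate activation scores above 10%, or exactly half above 10 with the replicate mean above 10; inconclusive = replicate mean below 10 yet half the replicates above 10; inactive = over half of replicates below 10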;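 note: wells of about 30 µL received 50 nL stock; many hits fall short of the cut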
B2AR ag: human beta-2 adrenergic receptor agonism by FAP | Am2.2-beta2AR cells, FAP receptor internalization, flow cytometry; reference of the scale not given here | actives 0.43% (n = 340,000) | P07550 | AID 504454 | response, % (concentration not given with the values);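 active = response above a set limit, near 3 SD of response in nonfluorescent compounds, cut at about 42% in these data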;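 note: stock transfer was 100 nL into about 11 µL; a reference agonist was the positive control; negative values mostly stem from fluorescent compounds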
Target sequence (P07550 whole entry, looked up): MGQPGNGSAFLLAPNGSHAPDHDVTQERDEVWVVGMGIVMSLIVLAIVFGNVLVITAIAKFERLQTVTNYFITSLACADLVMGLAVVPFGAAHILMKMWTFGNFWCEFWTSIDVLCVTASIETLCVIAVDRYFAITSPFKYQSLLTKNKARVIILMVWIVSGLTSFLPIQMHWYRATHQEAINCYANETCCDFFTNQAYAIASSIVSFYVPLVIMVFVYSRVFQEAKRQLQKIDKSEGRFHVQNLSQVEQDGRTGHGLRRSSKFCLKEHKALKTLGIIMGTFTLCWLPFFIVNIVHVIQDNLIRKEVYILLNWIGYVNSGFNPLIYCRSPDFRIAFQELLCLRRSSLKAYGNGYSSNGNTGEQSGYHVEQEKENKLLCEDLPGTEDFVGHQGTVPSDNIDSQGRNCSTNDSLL
UCH37 DUB inh: human UCH37 deubiquitinating enzyme inhibition; Q9Y5K5; purified proteasome/UCH37, Ub-AMC cleavage fluorescence; inhibition, % (concentration not given with the values); actives 0.33% (n = 330,000); AID 588478;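 active = mean of two replicates above 20%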;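 note: 0% = compound-free wells with enzyme and 100% = wells lacking proteasome; stock transfer was 100 nL into about 20 µL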
Target sequence (Q9Y5K5 whole entry, looked up): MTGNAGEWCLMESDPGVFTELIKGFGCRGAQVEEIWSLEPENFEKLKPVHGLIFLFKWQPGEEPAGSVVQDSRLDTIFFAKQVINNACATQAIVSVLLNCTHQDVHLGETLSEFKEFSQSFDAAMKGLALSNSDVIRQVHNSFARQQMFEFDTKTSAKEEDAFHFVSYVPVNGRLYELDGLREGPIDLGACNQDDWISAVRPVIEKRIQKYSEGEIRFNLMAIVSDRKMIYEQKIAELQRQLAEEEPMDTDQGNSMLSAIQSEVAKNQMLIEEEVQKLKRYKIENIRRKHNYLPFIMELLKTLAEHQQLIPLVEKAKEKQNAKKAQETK
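Signal – fluorescence, ex 355 nm, em 460 nm · System – Proteasome-bound UCH37 · Input – 0.15 nM proteasome as dispensed · Timing – 30 min preincubation with enzyme, 25 min cleavage at room temperature · Read-out basis – percent inhibition of cleavage signal versus uninhibited and no-proteasome wells · Medium – Tris-HCl pH 7.4 with ATP-MgCl2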
LANA-H2B inh: blocks KSHV LANA binding to histone H2A/H2B; cell-free LANA-H2A/H2B peptide, fluorescence polarization; inhibition, % (test concentration not listed); actives 0.6% (n = 320,000); in the data active = inhibition mostly above about 10%, no sharp cut-off; inactive = mostly below about 6.7%;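 note: stock transfer was 7.5 nL into about 10 µL; 0% = median of vehicle wells and 100% = median of positive control wells; one replicate is shown; the record names a cut of 25% in any replicate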
Active calls of the source: *; i = inactive; ? = inconclusive; · = no result given.

SMILES | RanGTP-Impb inh | Calb FLC | Beta cell apopt | T cruzi inh | Bfl-1 A1 inh | B2AR ag | UCH37 DUB inh | LANA-H2B inh
Nc1cc(=O)nc(SCC(=O)N(C2CCCCC2)C2CCCCC2)n1-c1ccccc1 | 2.9 | 3 | -2 | 10 | 0.2 | 15 | 2.1 | -1.1
Cc1ccc(NC(=O)c2ccc(S(=O)(=O)NCc3cccnc3)cc2)c(C)c1 | 5.0 | 5 | 6 | -13 | -0.1 | 1 | 1.5 | -1.7
OC(Cn1cncn1)c1ccc(Cl)cc1 (configuration not stated) | 1.0 | 10 | -9 | 5 | -0.3 | -1 | 2.7 | -5.3
CCOc1ccc(CN(C)C(=O)NNC(=O)c2ccc(C)cc2)cc1OC | 9.1 | -1 | -1 | -11 | 0.2 | -2 | 0.4 | 2.6
COc1ccc(C(=O)NC2CCN(CC(=O)NCc3cccc(OC)c3)CC2)cc1 | 1.7 | -1 | 4 | -3 | -0.4 | 4 | 0.7 | -5.2
O=C(NC(NC(=S)Nc1ccc(Cl)cc1Cl)C(Cl)(Cl)Cl)c1cccc([N+](=O)[O-])c1 (configuration not stated) | -2.0 | -9 | 97* | 74* | -0.4 | 8 | 4.7 | -5.9
CCOc1ccc(C(=O)NCC(=O)N2CCCC2)cc1 | -0.9 | 4 | · | -4 | 1.0 | 1 | 2.7 | -2.9
CCN(CC)CCCNC(=O)c1ccc(OCC(=O)Nc2ccccc2C(F)(F)F)c(OC)c1 | -5.4 | -2 | -5 | 55* | 0.8 | -1 | 3.0 | 1.0
C#CCO[C@@H]1C[C@H](n2cnc3c(=O)[nH]c(NC(=O)C(C)C)nc32)O[C@@H]1CO | -2.9 | 1 | -1 | -7 | 0.9 | 6 | -0.5 | -6.5
CCN(Cc1cnn(C)c1)C(=O)C1CCC(=O)N(CCc2ccc(OC)cc2)C1 (configuration not stated) | 1.4 | -8 | -2 | 10 | 1.4 | -5 | 1.3 | 1.7
O=C(O)C1CCCCC1C(=O)Nc1cccc2ccccc12 (configuration not stated) | 0.3 | 3 | -6 | 4 | -1.0 | 5 | -0.7 | -1.3
O=[N+]([O-])c1ccc(S(=O)(=O)N2CCSC2c2ccco2)cc1 (configuration not stated) | 3.9 | 15 | -13 | 36 | -1.4 | 12 | -0.7 | 0.6
CC(C)c1ccc(NC(=S)N2CCN(C)CC2)cc1 | · | -15 | -5 | · | -0.5 | 7 | 4.9 | 0.8
Cc1ccc2oc(-c3ccc(NC(=O)c4cccnc4)cc3)nc2c1 | -5.8 | ? | 86* | 1 | 0.0 | 19 | 1.8 | -4.7
Cc1ccc(C(=O)NCC(=O)N2CCN(S(=O)(=O)c3cccs3)CC2)s1 | -0.2 | 1 | 2 | -1 | 0.4 | 7 | 2.3 | -0.2
CC(=O)ON1C(C)(C)CC(OC(=O)c2ccccc2)CC1(C)C | 0.9 | 14 | 2 | -18 | 0.4 | 7 | 0.5 | 1.5
CN(NS(=O)(=O)c1ccc(F)cc1)c1ncc(C(F)(F)F)cc1Cl | -1.1 | -1 | -16 | -11 | -0.7 | 2 | 1.9 | 2.4
O=C(N/N=C(\c1ccccc1)c1cccnc1)C(O)(c1ccccc1)c1ccccc1 | 5.4 | 6 | 4 | 16 | 0.4 | -1 | · | ·
O=C(Nc1ccccc1)NC1CCCCCCC1 | ? | 24 | · | 0 | 0.5 | 7 | 6.2 | -4.8
COc1ccc(S(=O)(=O)c2nnn(-c3ccccc3Cl)c2N)cc1 | 8.9 | -4 | -2 | -21 | 0.0 | 0 | 0.5 | -0.8
COc1ccc(O)c(/C=N/NS(=O)(=O)c2ccc(C)cc2)c1 | -1.7 | 48 | -4 | -8 | 0.0 | 3 | · | 3.1
Cc1cc(C)c(OCCN(C)Cc2ccccc2)c(Br)c1 | -2.8 | 10 | 2 | 57* | 0.8 | 6 | 1.9 | 2.8
CCCCOC(=O)C(C#N)c1nc2ccccc2nc1N1CCOCC1 (configuration not stated) | 2.1 | 1 | 5 | 24 | 0.7 | -12 | 3.5 | 7.7
CN(C)c1ccc(/C=N/NC(=O)c2sccc2-n2cccc2)cc1 | -5.1 | -14 | -3 | -1 | 1.1 | 1 | · | 3.7
O=c1[nH][nH]c(C(F)(F)F)c1C=Nc1cccc(Cl)c1 | -2.7 | 10 | -8 | 0 | 0.7 | -3 | 5.5 | -1.6
Next part:
SMILES | RanGTP-Impb inh | Calb FLC | Beta cell apopt | T cruzi inh | Bfl-1 A1 inh | B2AR ag | UCH37 DUB inh | LANA-H2B inh
CN(CC(=O)Nc1ccc(S(N)(=O)=O)cc1)Cc1ccccc1F | 0.2 | 4 | -10 | -5 | 0.5 | 5 | 0.3 | -4.1
CCOc1ccc(S(=O)(=O)N(C)CCO)cc1-c1nc2c(C(C)(C)C)nn(C)c2c(=O)[nH]1 | ? | 35 | 5 | 25 | -0.6 | 0 | 3.5 | -5.3
COc1cccc(NC(=O)CSc2ccc(-c3ccco3)nn2)c1 | -1.0 | -2 | -22 | -12 | 0.2 | -2 | -0.2 | -1.7
COC(=O)[C@H](C)NC(=O)Nc1ccc(OC(F)(F)F)cc1 | 0.8 | -7 | -7 | -11 | 0.4 | 4 | 0.6 | 2.5
Cc1cccc(NC(=O)c2ccc(S(=O)(=O)C(F)F)cc2)c1C | 0.8 | 0 | 3 | -15 | 0.4 | 3 | -1.9 | -5.0
O=C1[C@@H]2CSCN2C(=O)CN1Cc1c(F)cccc1Cl | -1.5 | 3 | -6 | -4 | 1.1 | -5 | 2.1 | -0.7
CCOC(=O)CSc1nc2ccccc2c(=O)n1C1CCCC1 | 0.2 | 4 | 0 | -3 | -0.6 | 1 | 3.0 | 11
CC1(C)NC(=O)N(CCCCOc2ccc3ccccc3c2Cl)C1=O | -1.8 | 11 | · | 11 | -1.3 | -1 | 2.6 | -0.5
CCOC(=O)CC(NS(=O)(=O)c1ccc2[nH]c(=O)sc2c1)c1ccc(C)cc1 (configuration not stated) | -0.6 | 2 | 2 | -4 | 0.4 | 2 | 4.1 | 1.2
COc1ccc2[nH]cc(CCNS(=O)(=O)c3ccc(C)cc3)c2c1 | 1.6 | 12 | -11 | -10 | -1.1 | -1 | 5.4 | 0.9
O=C(COC(=O)c1cc(=O)[nH]c2ccccc12)NCc1ccccc1Cl | · | · | -7 | · | 0.2 | 0 | -19 | -2.4
Cc1nnc(N2C(=O)C(O)=C(C(=O)c3ccco3)C2c2cccc3ccccc23)s1 (configuration not stated) | -9.9 | -2 | -9 | -8 | -0.9 | 3 | · | -1.4
COC(=O)CSC1=C(C#N)C(c2ccc(F)cc2)CC(=O)N1 (configuration not stated) | 1.8 | 1 | -5 | 3 | -0.3 | 4 | 4.2 | 2.1
CC(=O)Nc1ccc(C(O)(C(F)(F)F)C(F)(F)F)cc1 | 5.0 | 3 | 2 | -16 | 1.2 | 8 | 2.3 | 5.9
CNc1ccc(Br)cc(C(=O)/C=C/c2ccc(OC)cc2OC)c1=O | ? | 38 | -9 | -10 | -0.3 | 8 | 18 | 0.9
Cc1ccc(-n2c(O)c(/C=C3/C(c4ccccc4)=Nc4ccccc43)c(=O)[nH]c2=O)cc1 | 0.7 | -2 | -15 | -43 | -0.2 | 22 | 3.6 | 3.6
Cn1c(=O)c2c(ncn2CC(=O)N/N=C/c2ccco2)n(C)c1=O | 3.6 | -14 | -11 | -13 | 1.5 | 3 | · | -4.7
S=C(NCc1ccccn1)Nc1ccc(Cl)c(Cl)c1 | 5.8 | 2 | -8 | -17 | 1.3 | -2 | 5.4 | -5.6
Cc1cc(C)n(-c2nnc3c4ccccc4n(C)c3n2)n1 | 0.9 | -1 | -1 | -4 | -6.5 | -29 | 5.4 | -1.9
Cc1ccc(NC(=O)C2=C(O)c3ccccc3N(C)S2(=O)=O)cc1 | 4.2 | 5 | -5 | -6 | -0.5 | 0 | 8.3 | 0.0
C[C@@H]1COC(=O)[C@@H](CC(=O)OC(C)(C)C)C/C=C\C[C@@H](CC(=O)N[C@@H](CO)Cc2ccccc2)C(=O)N1 | · | · | 0 | · | 0.1 | -2 | 2.7 | 2.2
CC1(C)CC(=O)c2c(O)cc(OCC(=O)NCCc3ccc(S(N)(=O)=O)cc3)cc2O1 | 2.9 | 2 | -3 | 8 | -0.3 | 1 | 4.5 | -0.9
COc1ccc(NC(=S)N/N=C2\CC(C)(C)Oc3ccc(O)cc32)cc1 | ? | -6 | -4 | 5 | 0.6 | 3 | · | -1.7
CCCCn1c(=O)n(CC(=O)Nc2c(CC)cccc2CC)c(=O)c2c1nc(CO)n2CCC | -0.5 | 5 | 1 | 1 | 0.6 | 3 | 2.9 | 1.0
COc1ccc(C(=O)Nc2ccnn2C2CCN(Cc3ccncc3)CC2)cc1 | 2.1 | 0 | · | -1 | -0.4 | -1 | 3.8 | -6.1

The final 5 compounds of the part before lead into the next.
SMILES | RanGTP-Impb inh | Calb FLC | Beta cell apopt | T cruzi inh | Bfl-1 A1 inh | B2AR ag | UCH37 DUB inh | LANA-H2B inh
C[C@@H]1COC(=O)[C@@H](CC(=O)OC(C)(C)C)C/C=C\C[C@@H](CC(=O)N[C@@H](CO)Cc2ccccc2)C(=O)N1 | · | · | 0 | · | 0.1 | -2 | 2.7 | 2.2
CC1(C)CC(=O)c2c(O)cc(OCC(=O)NCCc3ccc(S(N)(=O)=O)cc3)cc2O1 | 2.9 | 2 | -3 | 8 | -0.3 | 1 | 4.5 | -0.9
COc1ccc(NC(=S)N/N=C2\CC(C)(C)Oc3ccc(O)cc32)cc1 | ? | -6 | -4 | 5 | 0.6 | 3 | · | -1.7
CCCCn1c(=O)n(CC(=O)Nc2c(CC)cccc2CC)c(=O)c2c1nc(CO)n2CCC | -0.5 | 5 | 1 | 1 | 0.6 | 3 | 2.9 | 1.0
COc1ccc(C(=O)Nc2ccnn2C2CCN(Cc3ccncc3)CC2)cc1 | 2.1 | 0 | · | -1 | -0.4 | -1 | 3.8 | -6.1
CN(CC(=O)NCc1ccc(Cl)cc1)S(=O)(=O)c1cccc2nsnc12 | 1.0 | 4 | -12 | 4 | -0.5 | 5 | 2.2 | 0.5
COc1ccccc1-c1ccc(SCC(=O)NC2CCCCC2)nn1 | 0.2 | 2 | -8 | -2 | -0.6 | -7 | 1.1 | -1.0
C[C@@H](C(=O)OCn1nnc2ccccc2c1=O)N1C(=O)C2CCCCC2C1=O (some centres not stated) | 3.0 | 42 | 3 | -9 | 0.2 | 0 | 3.9 | -4.8
CCN(CC)C(=O)Nc1cnc2ccccc2c1 | 0.8 | -6 | -11 | -1 | 0.2 | -5 | -4.6 | 1.3
Nc1ccc(-c2nc3ccc(N)cc3s2)cc1 | -5.9 | -2 | 16 | 10 | -15 | 5 | i | -4.5
CCOC(=O)N1CCN(C(=S)NC(=O)c2cccc(OC)c2)CC1 | · | · | -5 | · | 0.0 | 2 | 1.8 | 1.6
COc1ccc(C(=O)C(c2ccccc2)N2CCOCC2)cc1 (configuration not stated) | 0.6 | 2 | 0 | 7 | 0.4 | -1 | -5.4 | 4.1
COC(=O)c1ccc(-c2ccc(F)cc2)nc1C | 0.8 | -2 | · | 0 | -8.6 | -4 | 1.2 | -0.2

Compounds were not picked by outcome. Share with any hit: about 4.3%.
